Ba CapD inh = blocks the Bacillus anthracis CapD enzyme; purified CapD enzyme, fluorescence intensity read-out; stronger effect = lower value; some hits fall short of the stated cut; z-score (no concentration beside the values); hit rate 0.23% among 140,000; AID 492967;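 active = z-score under -4 in either of two replicates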;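 also: stock transfer was 100 nL into about 40 µL; score is relative to mean and spread of the plate; one replicate is shown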
AID504770 = growth inhibitors of E. coli YBA685 in a screen for V. cholerae RctB (chromosome II replication) inhibitors; E. coli YBA685 rctB-dependent plasmid, OD600 growth, 3 h; stronger effect = lower value; z-score (test concentration not listed); hit rate 0.27% among 130,000; AID 504770;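 active = z-score under -2 on both plates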;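 also: wells of about 30 µL received 100 nL stock; score is relative to mean and SD of the test wells; the first replicate is given; strong numbers were not always called active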
* = called active by the depositor; i = inactive; . = no result given; & = joins results of further samples.

SMILES	Ba CapD inh	AID504770
CNC(=O)C1CC(=O)N(C2CCCCCC2)C1 (stereo unspecified)	1.3	-0.15
O=S(=O)(/N=C\c1cc(Br)ccc1O)c1cccs1	-1.2	-0.6
Cc1csc(-c2cc3ccc(O)c(CN4CCCC4)c3oc2=O)n1	i	1.2
Cc1[nH]c2ccccc2c(=O)c1CNCc1ccccc1	.	0.15
CC1C(=O)NC(=O)N1c1ccc(Cl)cc1 (stereo unspecified)	.	2.4
CCSc1nnc(SCC(=O)c2ccc(OC)cc2OC)s1	.	-0.25
Cn1c(-c2ccccc2)nc2ccccc21	1.3	1.8
CC(C)COc1ccc(C(=S)N2CCCCC2)cc1	63	0.85
CC(SCc1nc2sc3c(c2c(=O)[nH]1)CCCC3)C(=O)Nc1nccs1 (stereo unspecified)	.	2.3
CC[N+](CC)(CC)CCOc1cccc(OCC[N+](CC)(CC)CC)c1OCC[N+](CC)(CC)CC	1.1&-1.3	.
CC(NC(=S)NCCN1CCCCC1)c1ccccc1 (stereo unspecified)	0.42	-0.05
CCc1ccccc1NC(=O)CN(C)Cc1nc(N)nc(Nc2ccccc2C)n1	.	-1.2
O=C(CSc1ccc(Br)cc1)c1ccco1	.	-0.15
O=c1c2[nH]c3ccc(Cl)cc3c2ncn1CCCN1CCCC1	23	0.5
O=C(Nc1cccc(C(F)(F)F)c1)C1CCCO1 (stereo unspecified)	.	-0.45
Cc1nnc(SCc2ccc(Cl)cc2)nc1/C=C/Nc1ccc(F)cc1	5.9	.
O=C(O)c1cccc(Nc2nc(-c3ccccn3)cs2)c1	.	0.4
CCN(CC)c1ccc(NC(=O)c2ccc(Cl)s2)cc1	-1.6	-1.4
O=C(OCN1C(=O)c2ccccc2C1=O)c1cccc(S(=O)(=O)N2CCCC2)c1	.	0.55
COc1ccc(C(=O)N2CCN(C(=O)CC(C)(C)CC(=O)O)CC2)cc1F	0.51	.
Cc1oc(C(C)(C)C)cc1C(=O)N1CCC(O)(c2ccc(Cl)cc2)CC1	-0.11	-0.75
CCOC(=O)c1sc2ccc(NC(=O)c3ccccc3Cl)cc2c1C	2.1	.
C=CCOc1ccc(C(=O)O)cc1OC	.	-0.85
COc1ccc(Cl)cc1-c1nc(C=Nc2ccc(Br)cn2)c(O)o1	0.34	.
CCOC(=O)C(C)Sc1ncnc2c1nnn2Cc1ccc(Cl)cc1 (stereo unspecified)	.	-0.05

(further entries)
SMILES	Ba CapD inh	AID504770
O=C(Nc1ccc(OC(F)(F)F)cc1)Nc1cccc(C(=O)O)c1	0.3	.
Cc1[nH]n(C)c(=O)c1N=Nc1ccc(C(F)(F)F)cc1	-1.6	.
O=C(OCc1ccc(Cl)cc1)c1ccccc1NCc1ccco1	.	-0.1
CN(C(=O)CCc1nc2ccccc2s1)c1ccccc1	-0.2	-0.4
c1ccc(NC2=Nc3ccccc3CC2)cc1	0.12	0.1
Cc1ccc(-c2c(C(=O)O)c3ccccc3[nH]c2=O)cc1	12	0.55
CCCCn1c(CNC(=O)c2ccco2)nnc1SCC(=O)Nc1sc(C(=O)OCC)c(C)c1C(=O)OCC	-0.14	.
Cn1c(SCc2nc(-c3ccccc3)no2)nnc1C1CCCCC1	-1.2	1.1
COCCN(C1CCN(C(=O)/C=C/c2ccccc2)CC1)S(=O)(=O)c1ccc(Cl)cc1	-0.96	.
O=C(OCn1nnc2ccccc2c1=O)C1CSC2(c3ccc(F)cc3)CCC(=O)N12 (stereo unspecified)	.	-0.2
CC(=O)Oc1cc2oc(=O)c3c(c2cc1Cl)CCC3	11	0.15
CC(=O)N1CCOc2ccc(S(=O)(=O)N3CCOc4ccccc43)cc21	0.69	0
O=C(OCc1ccc(-c2ccccc2)cc1)N1CCN(Cc2cccnc2)CC1	0.33	.
CCOc1ccc(-c2c(C#N)c(N)nc3sc(C(=O)c4ccccc4)c(N)c23)cc1	0.18	.
Cc1cc(N2CCC(C)CC2)nc2ccc(NC(=O)CCC(=O)N3CCC(C)CC3)cc12	-0.035	-0.5
Cc1nn(-c2ccccc2)c2c1CC(C#N)(c1ccccn1)C1CCCN21 (stereo unspecified)	.	-0.15
CN1CCN(C(=O)c2cc(=O)oc3cc(OCc4ccc(Cl)cc4)ccc23)CC1	13	.
CCOC(=O)C1=NNC2C(=O)N(c3cc(C)ccc3C)C(=O)C12 (stereo unspecified)	-0.28	.
CC(=NC(C)C)C1=C(O)CCC1=O	0.25	0.4
O=C(/C=C/c1ccco1)OCc1ccccc1	-0.3	-0.5
CCOc1ccc(NC(=O)C2c3ccccc3Oc3ccccc32)cc1	-0.29	-0.9
COC(=O)c1cc(-c2ccc(S(=O)(=O)N3CCOCC3)cc2)c(C(F)(F)F)s1	0.8	-0.4
O=C(CCNC(=O)NC12CC3CC(CC(C3)C1)C2)Nc1ccc(-n2cnnn2)cc1	.	1.6
CC1CN(C(=O)Cn2nc(-c3cccc(-n4cccc4)c3)oc2=O)CC(C)O1 (stereo unspecified)	.	0.5
C=CCn1c(C)c(C(=O)OCC)c2cc(O)ccc21	.	-0.15

Going on with the list.
SMILES	Ba CapD inh	AID504770
O=C(CN(Cc1ccco1)Cc1cccs1)c1ccc[nH]1	.	-0.8
O=C(CSc1ncnc2[nH]ncc12)CSc1ncnc2[nH]ncc12	.	-1.1
COc1cccc(NC(=S)N(CCC#N)CCC#N)c1	-0.37	.
CC(C)(C)c1ccc(OC(=O)CCC(=O)O)cc1	-0.3	-0.8
O=S(=O)(c1ccc(-c2nc(-c3ccc(Cl)cc3)cs2)cc1)N1CCOCC1	1.4	0.95
COc1cc(-n2c(C)nc3cc(C(=O)NCc4ccc(F)cc4)ccc32)cc(OC)c1OC	-0.2	.
OC(c1ccccc1)c1cccc(C(F)(F)F)c1 (stereo unspecified)	-0.005	0.1
Cn1cc(C(=O)OCC(N)=O)c2ccccc21	.	0.05
COc1ccc2c3c(ccc2c1)C(=O)CCC3	44	0.75
CCOC(=O)CSc1ncn[nH]1	-0.18	.
N#CCc1ncc(-c2cc3cc(Br)ccc3oc2=O)s1	0.01	1.4
c1ccn(-c2nnc(C3CC3)s2)c1	-1.5	-0.5
Cc1cc(=O)oc(C)c1C(=O)NCc1c(F)cc(F)cc1F	-5.9*	-0.8
O=S1(=O)CC=C(S(=O)(=O)c2ccccc2)C1	0.43	-0.75
C=CCn1c(=O)c2c(C)c(C)sc2n2c(Nc3ccc(C(=O)OCC)cc3)nnc12	-1	0.95
Cn1c(=O)c2c([nH]c(=O)n2C)n(C)c1=O	-0.27	-0.05
Cn1nccc1C(=O)Nc1sc2c(c1C#N)CCC2	0.19	1.6
COC(=O)c1ccc(CN2CCN(c3ccccc3OC)CC2)cc1	0.23	0.2
COc1ccc(C(C(=O)NCc2cccs2)N(Cc2ccco2)C(=O)Cn2nnc(-c3cccs3)n2)cc1 (stereo unspecified)	.	1
CC1CC(C)CN(C(=O)Cn2c(=O)n(-c3ccc(Cl)cc3)c(=O)c3c4c(sc32)CCC4)C1 (stereo unspecified)	-0.79	0.7
Cc1cccc(-n2c(SC3CCOC3=O)nnc2-c2c[nH]c3ccccc23)c1 (stereo unspecified)	.	-0.55
CCOC(=O)c1ccc(NC(=O)Cn2cnc3c(nnn3-c3cccc(Cl)c3)c2=O)cc1	.	1.5
CC(=O)Nc1ccc2c(c1)OCCOCCOc1cc(NC(C)=O)ccc1OCCOCCO2	0.1	.
O=C(NC(=S)OCc1ccccc1Cl)c1ccco1	-0.94	-0.8
CNC(=O)/C(=C\c1ccc(Cl)cc1)NC(C)=O	-0.09	-0.45

Ordered by molar mass (rising): part of the list above
SMILES	Ba CapD inh	AID504770
c1ccn(-c2nnc(C3CC3)s2)c1	-1.5	-0.5
COc1cccc(NC(=S)N(CCC#N)CCC#N)c1	-0.37	.
Cc1cc(=O)oc(C)c1C(=O)NCc1c(F)cc(F)cc1F	-5.9*	-0.8

Reformatted field by field: four of the compounds above
compound: Cn1c(=O)c2c([nH]c(=O)n2C)n(C)c1=O
  Ba CapD inh: -0.27
  AID504770: -0.05
compound: Cn1nccc1C(=O)Nc1sc2c(c1C#N)CCC2
  Ba CapD inh: 0.19
  AID504770: 1.6
compound: COC(=O)c1ccc(CN2CCN(c3ccccc3OC)CC2)cc1
  Ba CapD inh: 0.23
  AID504770: 0.2
compound: COc1ccc(C(C(=O)NCc2cccs2)N(Cc2ccco2)C(=O)Cn2nnc(-c3cccs3)n2)cc1 (stereo unspecified)
  Ba CapD inh: .
  AID504770: 1

Taken from above:
O=C(NC(=S)OCc1ccccc1Cl)c1ccco1 in Ba CapD inh is entered as -0.94
Cc1cc(=O)oc(C)c1C(=O)NCc1c(F)cc(F)cc1F in AID504770 is entered as -0.8

The results go on.
SMILES	Ba CapD inh	AID504770
O=C1N=c2ccccc2=C1c1sc(Nc2nccs2)nc1O	.	-0.1
CS(=O)(=O)c1cnc(-c2ccc(O)cc2)nc1-c1ccc(Cl)cc1	-0.62	.
O=C(NCCN1CCOCC1)c1ccc(=O)n(Cc2ccc(Cl)cc2)c1	-0.33	.
O=C(NCCSCc1ccccc1)c1ccc(N2CC3CC(C2)c2cccc(=O)n2C3)c(NC(=O)c2cccs2)c1 (stereo unspecified)	0.05	.
CN1CCN(C(c2cccs2)N2CCN(C)CC2)CC1	0.36	-0.6
O=C(NCCc1c[nH]c2ccccc12)c1cc2nc(-c3ccc4c(c3)OCO4)cc(C(F)(F)F)n2n1	-0.32	.
Cc1cn(CCC#N)c2ccccc12	0.82	.
O=C(COC(=O)Cc1cccc(C(F)(F)F)c1)NCc1ccccc1Cl	0.35	-0.95
O=C(NNC(=O)c1snnc1-c1ccccc1)OCCc1ccccc1Cl	-0.21	.
COc1ccc(NC(=O)c2oc3ccccc3c2NC(=O)c2ccccc2)cc1	0.06	-0.5
COc1cc(-c2cc(-c3ccccc3)nc(SCC(=O)Nc3cc(C)on3)c2C#N)cc(OC)c1OC	0.57	.
CCOC(=O)c1cnn(CCOC(=O)c2ccccc2)c1NC(=O)c1ccccc1	-0.15	0.95
O=C1CCC(C(=O)Nc2ccc(S(=O)(=O)NCc3ccco3)cc2)=NN1	.	-1.2
COc1ccc(OC)c(C2C3=C(CC(C)(C)CC3=O)Nc3ccccc3N2C(=O)c2ccccc2)c1 (stereo unspecified)	-0.36	.
O=C1NC(=O)C(=Cc2ccccc2Oc2cccc(C(F)(F)F)c2)C(=O)N1	0.43	.
CC(C)c1ccc(NC(=S)N(Cc2ccccc2)C(C)C)cc1	0.21	-0.5
CCCN1C(=O)c2ccccc2NC1c1ccc(OC)c(CSc2ccccn2)c1 (stereo unspecified)	55	.
Cc1ccc(/C(O)=C2\C(=O)C(=O)N(c3ccccn3)C2c2ccc(F)cc2)cc1 (stereo unspecified)	-0.84	.
O=C(COc1ccccc1)n1nc(-c2ccc(Cl)cc2)nc1NCc1ccco1	-0.04	1.7
CCOc1ccc(OCC(=O)OCc2ncc(-c3ccccc3)o2)cc1	.	0.4
COc1ccc(OC)c(NC(=O)Cc2coc3ccc(C)cc23)c1	-0.33	0.15
C=C1C(O)(c2ccccc2)C2CC[N+]1(C)CC2 (stereo unspecified)	0.25	0.05
Nc1ccccc1C(=O)NCCCn1ccnc1	90	.
CC(=O)N1N=C(COc2ccc3c(c2)OCO3)OC1c1ccc(C)cc1 (stereo unspecified)	-0.71	0.2
CC1CCCC(C)N1C(=O)Cn1cc(/C=C2/C(=O)Nc3ccccc32)c2ccccc21 (stereo unspecified)	0.33	0.75

Molecules from the list above that contain a tert-butyl group:
SMILES	Ba CapD inh	AID504770
Cc1oc(C(C)(C)C)cc1C(=O)N1CCC(O)(c2ccc(Cl)cc2)CC1	-0.11	-0.75
CC(C)(C)c1ccc(OC(=O)CCC(=O)O)cc1	-0.3	-0.8

Following part.
SMILES	Ba CapD inh	AID504770
Nc1cc(N)nc(SCC(=O)N2CCCC2c2ccc3c(c2)OCCCO3)n1 (stereo unspecified)	.	-0.7
CCC(=O)N1c2ccccc2-c2nnc(SC)nc2OC1c1ccccc1 (stereo unspecified)	0.41	-0.55
COc1ccc(C2=NN3C(C2)c2cc(Cl)ccc2OC32CCCC2)cc1 (stereo unspecified)	4.1	.
CC(C)(C)C(=O)Nc1nc2ccccc2s1	.	-0.85
CC(C)OC(=O)/C(C#N)=C\c1cccn1C	.	-1
CN(C)S(=O)(=O)c1ccc(C(=O)NCc2nnc(SCC(=O)Nc3nccs3)n2-c2cccc(Cl)c2)cc1	-0.21	.
Cc1cccc(C)c1N=C1Oc2ccccc2NC1(C)c1ccccn1 (stereo unspecified)	-0.27	0.1
O=C(Cc1ccccc1)NN1CCCCC1	.	-0.25
CCN(CC)S(=O)(=O)c1ccc(-c2cn3cccnc3n2)cc1	19	-1.2
CN(C)C(=O)c1c(-c2ccccc2)oc2ccc(O)cc12	i	-1
C=CCSc1ncc(Cl)c(C(=O)Nc2ccc(S(N)(=O)=O)cc2)n1	-0.93	-0.5
CCn1c(C)cc(/C=C2\SC(=Nc3cc(Cl)ccc3C)NC2=O)c1C	0.17	-0.25
Cc1cc(NC(=O)CN2CCCCC2)nc2c1c(=O)oc1ccccc12	0.47	0
COc1ccccc1N1CCN(C(=O)/C=C/c2c(Cl)nc3sccn23)CC1	.	-1.1
CCN(CC)C(=O)c1oc2ccccc2c1NC(=O)C(C)C	-1.5	1.8
CC(C)(C)c1cc(CN2CCCC2)cc(C(C)(C)C)c1O	0.24	0.4
O=C(c1cn(-c2ccccc2)nc1-c1cccs1)N(CCO)Cc1ccccc1	1.7	-0.4
CCc1ccc(NC(=O)NCc2c(-n3cccc3)sc3c2CCCC3)cc1	0.19	0.55
CCCOc1ccc(NC(=O)C2CC(=O)N(C)C(=Nc3ccc(C)c(C)c3)S2)cc1 (stereo unspecified)	0.36	.
O=C(NCC1COc2ccccc2O1)c1cc(Cl)sc1Cl (stereo unspecified)	1.7	-0.65
O=C(OCCCCCc1ccccc1)N1CCN(c2ccccc2Cl)CC1	0.19	.
Cc1csc(=O)n1CC(=O)NC1CCCCCC1	.	0.25
Cc1ccc(C(F)(F)C(F)(F)c2ccccc2-c2nn[nH]n2)cc1	0.04	-0.6
